Sa growth inh: blocks Staphylococcus aureus growth | S. aureus RN4220 growth, OD600, 20 h, 42 °C; stronger effect = lower value | relative growth, % (concentration not given with the values) | 170,000 tested, 0.53% active | AID 720641;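 active = growth at 42 °C up to 50% and 20 or more points under that at 30 °C, or under 10% at both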;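 note: 300 nL library stock went into each well; scaled to the means of positive and negative controls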
GIV-Gai inh: blocks GIV peptide binding to rat Galpha-i3. P08753. Galpha-i3/FITC-GIV peptide fluorescence polarization, 90 min; stronger effect = lower value; scaled: aluminum fluoride 0%, vehicle 100%. percent of control (FP), % (test concentration not listed). 210,000 tested, 0.42% active;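 active = replicate mean at 85% of control or lower, very high polarization wells dropped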;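 note: wells of about 15 µL received 100 nL stock; the first replicate is given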
Target sequence (P08753 whole entry, looked up): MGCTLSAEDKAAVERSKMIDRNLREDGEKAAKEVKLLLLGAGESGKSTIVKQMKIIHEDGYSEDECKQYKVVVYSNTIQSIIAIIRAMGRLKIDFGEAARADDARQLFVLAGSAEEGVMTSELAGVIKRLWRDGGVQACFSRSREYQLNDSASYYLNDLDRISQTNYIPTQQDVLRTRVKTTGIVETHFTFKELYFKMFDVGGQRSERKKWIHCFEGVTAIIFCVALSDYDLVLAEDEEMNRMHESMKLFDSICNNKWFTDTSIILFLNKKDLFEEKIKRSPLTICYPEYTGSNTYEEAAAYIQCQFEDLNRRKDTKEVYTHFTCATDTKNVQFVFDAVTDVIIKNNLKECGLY
HCMV NEC inh: cytomegalovirus nuclear egress complex inhibition; HTRF UL50-UL53 interaction, normalized percent inhibition; inhibition, % (concentration not given with the values); 190,000 tested, 0.15% active;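 active = both replicates at 50% or more, plus weaker picks with an unusually low signal ratio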;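 note: stock transfer was 100 nL into about 20 µL; 0% = negative control wells and 100% = wells with untagged competitor protein; inactives centre near -12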
Sa growth inh second temp: further read-out of Sa growth inh, marked with its call; relative growth, %; measured here: growth at 30 °C;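 optical density after 20 h as mean of two plates; 100% = untreated growth and lower means inhibition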
Active calls of the source: *; . = no result given; & = joins results of further samples. Compounds as they come; 0.83% or so of the library scored in one or more.

1: O=S(=O)(c1ccc(Cl)cc1)N1CCC2(CC1)Nc1cc(F)ccc1-n1cccc12
2: Cc1ccc(CNC(=O)NC(c2ccccc2)c2nnc(-c3ccc(Cl)cc3)o2)cc1 (stereo not given)
3: Cc1ccc(NC(=O)c2c(C)oc3ccc(O)c(CN(C)Cc4ccccc4)c23)c(C)c1
4: O=C(c1ccco1)N1CCN(C(=O)c2sc3ccccc3c2Cl)CC1
5: COc1ccc(CCNS(=O)(=O)c2c(C)nc3sccn3c2=O)cc1OC
6: Fc1ccc(-n2cc(-c3ccccc3)c3c(NCCC4=CCCCC4)ncnc32)cc1
entry no.	1	2	3	4	5	6
Sa growth inh	.	.	100	91	89	106
Sa growth inh second temp	.	.	46	78	77	91
GIV-Gai inh	97	101	103	98	102	99
HCMV NEC inh	-4	-9	12	-11	.	.

Another view of part of the listing above.
no.	Molecule	Sa growth inh	Sa growth inh second temp	GIV-Gai inh	HCMV NEC inh
6	Fc1ccc(-n2cc(-c3ccccc3)c3c(NCCC4=CCCCC4)ncnc32)cc1	106	91	99	.
4	O=C(c1ccco1)N1CCN(C(=O)c2sc3ccccc3c2Cl)CC1	91	78	98	-11
2	Cc1ccc(CNC(=O)NC(c2ccccc2)c2nnc(-c3ccc(Cl)cc3)o2)cc1 (stereo not given)	.	.	101	-9

(next part)
7: Cn1c(Sc2c3c(nc4ncnn24)CCC3)nnc1-c1ccccc1
8: CC1(C)NC(=O)N(CN2CCCCC2)C1=O
9: COc1ccc(C2=NN(C(=O)c3ccccc3)C(c3ccc(N(C)C)cc3)C2)cc1OC (stereo not given)
10: O=C(CSc1ncccn1)Nc1ccc2c(c1)OCCCO2
11: COC(=O)c1ccccc1NC(=O)/C=C/C(=O)O
12: CCc1ccc(-c2cc(C)no2)cc1S(=O)(=O)Nc1ccc(C)cn1
entry no.	7	8	9	10	11	12
Sa growth inh	107	85	.	87	125	71
Sa growth inh second temp	83	77	.	94	89	88
GIV-Gai inh	102	100	113	.	105	98
HCMV NEC inh	-1	-38	-4	-4	-5	.

13: Cc1ccc(C(=O)COC(=O)CN2C(=O)C3CC=CCC3C2=O)cc1C (stereo not given)
14: COc1ccc(NC(=O)c2ccco2)cc1NC(=O)c1cc(Br)ccc1Cl
15: O=C1CCc2cc(S(=O)(=O)NCCC(=O)NC3CCCCCCC3)ccc2N1
16: O=c1c2oc3ccccc3c2ncn1Cc1ccc(F)cc1
17: Cc1ccc(NC(=O)C(=O)NCC(c2ccc3c(c2)OCO3)N2CCN(c3ccccc3)CC2)cc1 (stereo not given)
18: CC(C)CNC(=O)c1ccc2c(=O)n(C(C)C)c3nn(CC(=O)NC4CCCC4)c(=O)n3c2c1
entry no.	13	14	15	16	17	18
Sa growth inh	100	101	93	.	100	.
Sa growth inh second temp	97	94	81	.	87	.
GIV-Gai inh	100	101	100	105	97	100
HCMV NEC inh	12	.	.	-17	.	-25

19: CC(C)(C)C(=O)Oc1ccc(S(=O)(=O)Nc2ccccc2C(=O)NCC(=O)O)cc1
20: COc1ccc(NC(=O)CC(NCc2ccccc2)C(=O)O)cc1 (stereo not given)
21: CCCNC(=O)C(Cc1ccccc1)NS(=O)(=O)c1ccc2c(c1)c(=O)n(C)c(=O)n2C (stereo not given)
22: CCOC(=O)c1cnc2ccccc2c1Nc1ccc(N2CCOCC2)cc1
23: COc1ccc(-c2c(C)nn3c(C)cc(C)nc23)cc1OC
24: COc1cccc(C2=CC(c3ccccc3F)n3ncc(C(=O)Nc4ccc(C)cc4)c3N2)c1 (stereo not given)
entry no.	19	20	21	22	23	24
Sa growth inh	.	101	97	107&103	100	82
Sa growth inh second temp	.	89	89	93&97	87	82
GIV-Gai inh	94	99	102	103&107	105	114
HCMV NEC inh	-6	-18	-20	-18&-5	-30	.

25: CCCCCn1c(=O)c2c(nc3n2CCS3)n(C)c1=O
26: COC(=O)c1ccccc1NC(=O)C1CCN(C(=O)N2CC(C)Oc3ccccc32)CC1 (stereo not given)
27: CC(C)(C)NC(=O)n1ccc(-c2ccc(-n3ccnc3)cc2)n1
28: CC1CCCCN1Cc1c(O)ccc2cc(-c3nc4ccccc4s3)c(=O)oc12 (stereo not given)
29: CC(=O)N1N=C(c2c(-c3ccccc3)c3cc(Cl)ccc3[nH]c2=O)CC1c1ccc(Cl)cc1 (stereo not given)
30: O=c1c2nnn(Cc3ccc(F)cc3)c2ncn1Cc1ccc(F)cc1
entry no.	25	26	27	28	29	30
Sa growth inh	.	106	.	.	.	101
Sa growth inh second temp	.	87	.	.	.	80
GIV-Gai inh	105	107	102	-32*	105	106
HCMV NEC inh	-12	-22	3	-61	-10	.

31: COc1cc2c(cc1OC)CN(c1nnnn1-c1ccccc1)CC2
32: CC1(C)OC(=O)N(CC(=O)Nc2ccc(F)cc2)C1(C)O (stereo not given)
33: CSc1ncccc1C(=O)NC(C)(C#N)C(C)C (stereo not given)
34: CCCOc1cc(C)c(S(=O)(=O)NCCOC)cc1C
35: Cc1oc2ncn(C)c(=O)c2c1C(=O)N1CCN(c2ccc(Cl)cc2)CC1
36: CC(C)CNC(=O)c1ccccc1
entry no.	31	32	33	34	35	36
Sa growth inh	96	100	104	99	91	88
Sa growth inh second temp	88	88	92	102	93	111
GIV-Gai inh	.	.	103	102	106	.
HCMV NEC inh	-20	1	-5	-7	.	-6

3 records picked at random from those above:
27: CC(C)(C)NC(=O)n1ccc(-c2ccc(-n3ccnc3)cc2)n1
4: O=C(c1ccco1)N1CCN(C(=O)c2sc3ccccc3c2Cl)CC1
28: CC1CCCCN1Cc1c(O)ccc2cc(-c3nc4ccccc4s3)c(=O)oc12 (stereo not given)
entry no.	27	4	28
Sa growth inh	.	91	.
Sa growth inh second temp	.	78	.
GIV-Gai inh	102	98	-32*
HCMV NEC inh	3	-11	-61

Entries by screen from the entries so far.
Sa growth inh second temp for nos. 5–11, in order: 77, 91, 83, 77, ., 94, 89
HCMV NEC inh for nos. 5–11, in order: ., ., -1, -38, -4, -4, -5

The list goes on:
37: CN(Cc1cccs1)S(=O)(=O)c1ccc(Br)cc1Cl
38: CC(C)(C)N1COc2ccc3c4c(oc3c2C1)C(=O)c1ccccc1C4=O
39: O=C(NC1CCCCC1)c1cnc2sc3c(n2c1=O)CCCCC3
40: O=C(NCCO)c1ccc2snnc2c1
41: O=C1COc2cc(S(=O)(=O)N3CCC(N4CCCCC4)CC3)c(Cl)cc2N1
42: CCN(CC1COc2ccccc2O1)C(=O)c1ccc2c(c1)SC1=NS(=O)(=O)CCN12 (stereo not given)
entry no.	37	38	39	40	41	42
Sa growth inh	104	50	.	98	.	95
Sa growth inh second temp	100	24	.	83	.	91
GIV-Gai inh	.	109	106	103	109	.
HCMV NEC inh	-21	32	-28	-6	-19	1

43: CCn1nc(C)cc1/C(N)=N/OC(=O)c1cc(Cl)cc(Cl)c1
44: CCc1ccc(-c2nn(CC(=O)NC3CCCCC3)c3c2cnc2ccc(C)cc23)cc1
45: CCn1c2ccccc2c2cc(CN3CCN(Cc4ccc(OC)c(OC)c4)CC3)ccc21
46: COC(=O)c1cc(S(=O)(=O)NCCC(=O)Nc2ccc(F)cc2F)cn1C
47: Cc1ccc(NC(=O)C2CCC(CNS(=O)(=O)c3ccc4c(c3)C(C)(C)C(=O)N4C)CC2)cc1 (stereo not given)
48: CCC(C)(C)C1CCc2c(sc(NC(=O)c3sc4cc(C)ccc4c3Cl)c2C(N)=O)C1 (stereo not given)
entry no.	43	44	45	46	47	48
Sa growth inh	87	95	100	.	99	.
Sa growth inh second temp	88	86	83	.	75	.
GIV-Gai inh	103	98	107	103	108	107
HCMV NEC inh	-30	.	-54	-9	.	-23

49: Cc1ccc(Cn2c(=O)c3ccccc3n3c(SCC(=O)N(C(C)C)C(C)C)nnc23)cc1
50: CCOC(=O)N1CCC(NC(=O)NCc2noc3ccccc23)CC1
51: O=C(c1nnc(Cc2ccc(F)cc2Cl)o1)N1CCN(c2ccccn2)CC1
52: COc1ccc(C2CC(=O)C3=C(C2)Nc2ncnn2C3c2cccc(OC)c2)cc1 (stereo not given)
53: O=C(NC12CC3CC(CC(C3)C1)C2)c1cccnc1
54: Cc1cc(C)n(C(=O)CNc2ccccc2Cl)n1
entry no.	49	50	51	52	53	54
Sa growth inh	68	98	99	.	92	96
Sa growth inh second temp	84	93	89	.	97	78
GIV-Gai inh	.	97	102	101	100	97
HCMV NEC inh	-23	.	-17	-34	.	-11

(listing goes on)
Results follow in this order: Sa growth inh, Sa growth inh second temp, GIV-Gai inh, HCMV NEC inh
[55] CCn1nc(C)c2c1c(=O)n(Cc1ccc(F)cc1)c(=O)n2CC(=O)NC1CCCCC1
 : ., ., 101, 11
[56] CSc1nc(N)c(C#N)cc1C#N
 : 114, 87, ., 26
[57] Cc1ccc(Cl)cc1NC(=O)Cn1c(=O)oc2cc(S(=O)(=O)N3CCCCCC3)ccc21
 : 150, 79, 98, .
[58] COc1ccc(C(=O)/C=C/Nc2ccc(Cl)cc2F)cc1
 : 117, 97, 109, 3
[59] COc1ccc(CNCc2ccccc2)cc1
 : 89, 82, 95, -16
[60] CCn1c(CC(=O)Nc2ccccc2)nnc1SCC(=O)N1CCc2ccccc21
 : 99, 91, 100, -14
[61] COC(=O)COc1ccc(Oc2nc(NCC(C)C)nc(N3CCOCC3)n2)nn1
 : 102, 99, 106, 4
[62] COc1ccc(CNC(=O)COC(=O)Cc2ccc(OC)cc2)cc1
 : 114, 92, ., -30
[63] CC(C)S(=O)(=O)c1ccc(Cl)cc1
 : 102, 83, ., -13
[64] c1ccc(CNc2ccncc2)cc1
 : 85, 68, 100, -14
[65] CC12CC(c3ccccc3O1)C(S(=O)(=O)c1ccccc1)C(=O)N2 (stereo not given)
 : 115, 107, 109, 4
[66] CC(=O)N1C(=O)c2cccc3cccc1c23
 : 104, 60, 101, -60
[67] CN(NS(=O)(=O)c1ccc(Cl)cc1)c1cnn(C)c(=O)c1Cl
 : 88, 87, 101, -16
[68] Nc1nc(Br)c2c(F)cccc2c1-c1ccccc1
 : ., ., 107, -21
[69] Cc1cccc(NC(=O)CN(C2=NC3CS(=O)(=O)CC3S2)c2ccccc2)c1 (stereo not given)
 : 87, 96, 103, .
[70] CCCC(=O)OCc1cc(=O)n2nc(C)sc2n1
 : ., ., 100, -35
[71] O=S1(=O)NC(c2ccc(Cl)cc2Cl)Nc2ccccc21 (stereo not given)
 : ., ., 100, -19
[72] CCOC(=O)c1ccccc1NC(=O)c1cc2ccc3cccnc3c2[nH]1
 : 103, 101, 108, .
[73] O=C(O)CC1C(=O)NN=C2c3ccccc3N=CN21 (stereo not given)
 : 105, 90, ., -40
[74] O=C(OCc1ccccc1)c1ccc(O)cc1
 : 94, 40, 102, -8
[75] O=C1CCCN1c1ccc(S(=O)(=O)Nc2c(NC3CCCCC3)c3ccccc3oc2=O)cc1
 : 112, 100, 103, -22
[76] CCCCS(=O)(=O)Nc1ccc2ncn(C)c(=O)c2c1
 : 90, 89, ., 9
[77] O=C1C2CC=CCC2C(=O)N1CCc1nc(-c2ccccc2)no1 (stereo not given)
 : 100, 103, 96, -14
[78] CC1=C(C(=O)N2CCOCC2)C(c2cc(Cl)ccc2OC(F)F)n2c(nc3ccccc32)N1 (stereo not given)
 : 76, 82, 98, -33
[79] CCOc1ccc(NC(=O)c2c(OC)cccc2OC)cc1
 : 93, 82, ., -5
[80] CCCOc1ccccc1C1NC(=O)NC(C)=C1C(=O)OCC1CCCCC1 (stereo not given)
 : 95, 83, 98, -18
[81] O=C(Oc1ccc(Cl)cc1)c1ccc2nonc2c1
 : 123, 88, 98, -17
[82] N#CCn1ccn(-c2cccc3ccccc23)c(=O)c1=O
 : 102, 88, 99, -47
[83] Nc1n[nH]c(-c2ccccc2)c1-c1ccccc1
 : 91, 54, 111, 1
[84] COC(=O)CN(c1ccccc1)S(=O)(=O)c1ccc(C)cc1
 : 90, 80, 96, .
[85] CC(=O)OCC(=O)c1ccc(C(F)(F)F)cc1
 : 113, 88, 102, -3
[86] COc1ccc(C(=O)O)s1
 : 99, 85, 102, -3
[87] C=CCSC1=C(C#N)C(c2ccccc2C)CC(=O)N1 (stereo not given)
 : 119, 93, 101, .
[88] O=C(c1ccc(N2CCOCC2)nn1)N1CCc2ccccc21
 : ., ., 105, 11
[89] COc1ccccc1-c1nn(CNc2ccccc2)c(=S)o1
 : 83, 84, ., -4
[90] Cc1ccc(NC(=O)C2CCC(CNS(=O)(=O)c3cccc4nsnc34)CC2)c(Cl)c1 (stereo not given)
 : 112, 85, 104, -8
[91] O=C(NC1CCCCC1)C1CCN(c2cc(-c3cccc(F)c3)ncn2)CC1
 : ., ., 101, -36
[92] Cn1c(=N)n(CC(=O)c2ccccc2)c2ccccc21
 : 83, 74, ., 3
[93] O=C(NC1CCCC1)c1cc(-c2ccc(Br)cc2)on1
 : 113, 93, 108, .
[94] Cn1c(=O)c2ccccc2n2c(CN3C(=O)NC4(CCCc5sccc54)C3=O)nnc12 (stereo not given)
 : 106, 90, ., 21
[95] O=C(O)CCN(Cc1ccccc1)S(=O)(=O)c1cccs1
 : 80, 90, ., -34
[96] O=c1c2ccccc2cnn1-c1ccc(F)cc1F
 : 102, 96, ., 10
[97] O=C(CSc1nc2sc3c(c2c(=O)n1-c1ccccc1)CCCC3)NCCCO
 : ., ., 101, -16
[98] O=C(O)c1cccc(N=Cc2ccc(N3CCOCC3)cc2)c1
 : 92, 91, ., -21
[99] COc1cccc(OCc2nc3ccccc3n2CCOc2ccc(C)cc2)c1
 : 78, 65, 101, -29

From PubChem BioAssay
